VDR inhibitor – blocks the human vitamin D receptor; AID 504847; 0.93% of 400,000 active; P11473; Potency, µM, without a hit: max response, negative = inhibition, most hits filed as inhibitors; VDR-SRC2-3 peptide fluorescence polarization, 2 h; active = well fitted inhibition curve with a large enough effect; inconclusive = small, poorly fitted or top-dose-only effect, or another doubt; inactive = no such curve, though single readings can be large or run the other way; note: series mostly up to about 120 µM
Target sequence (P11473 whole entry, looked up): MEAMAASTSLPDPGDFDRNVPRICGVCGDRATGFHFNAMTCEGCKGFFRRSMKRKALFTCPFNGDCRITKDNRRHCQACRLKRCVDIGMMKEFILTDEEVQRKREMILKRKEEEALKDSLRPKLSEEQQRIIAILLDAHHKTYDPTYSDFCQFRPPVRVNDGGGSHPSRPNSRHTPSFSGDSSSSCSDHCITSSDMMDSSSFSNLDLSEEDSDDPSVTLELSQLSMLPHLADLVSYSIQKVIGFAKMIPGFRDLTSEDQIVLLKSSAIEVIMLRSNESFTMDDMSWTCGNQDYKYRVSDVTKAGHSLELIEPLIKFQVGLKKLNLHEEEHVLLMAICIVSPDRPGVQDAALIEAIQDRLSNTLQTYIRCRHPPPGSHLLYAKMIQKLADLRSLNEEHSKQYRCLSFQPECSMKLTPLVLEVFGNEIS
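FP read-out; VDR + SRC2-3 coactivator peptide; 23 nl compound by pintool; 2 h RT incubation; reagents held at 4 deg C, protected from light.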
An asterisk follows results filed as active; ? = inconclusive; & = joins results of further samples; [ ] = another dose, or the depositor's remark. % is set by controls: 0 for no effect and ±100 for the full control effect; potency is the fitted concentration of half-maximal effect. Only part of the results is shown (hit frequency here may not be typical).

VDR inhibitor,Structure
3%,COc1ccc(OC)c(/C(O)=C/C(=O)C(=O)Nc2ccccc2OC)c1
-14%,Cc1ccccc1NC(=O)c1cc([N+](=O)[O-])ccc1NCCN1C(=O)CCC1=O
12%,O=C(Cn1nc(C(=O)O)c2ccccc2c1=O)NCCC1=CCCCC1
5%,COc1ccc(C(CNC(=O)c2ccc(S(=O)(=O)N3CC(C)CC(C)C3)cc2)N(C)C)cc1 (stereo not given)
-5%,CCOC(=O)CN1C(=O)N[C@@H](c2cccs2)C(C(C)=O)=C1C
-14%,CCOC(=O)C1CCCN(C(=O)/C=C/c2ccccc2[N+](=O)[O-])C1 (stereo not given)
-7%,CC(C)NC1CS(=O)(=O)CC1O (stereo not given)
4%,COc1ccc(-c2cc(C3CCN(C(=O)OC(C)(C)C)CC3)[nH]n2)cc1
-6%,CC(=O)Nc1ccc(NC(=O)c2ccc(NC(=O)c3ccccc3)cc2)cc1
-10%,COc1ccc([C@@]2(O)c3c(ccc(CC=C(C)C)c3O)NC(=O)[C@@H]2OC)cc1
1%&-1%,Cc1cccc(CNS(=O)(=O)c2ccc(-c3cnc(C4CC4)o3)cc2)c1
1%,CCCCN1C(=O)/C(=C2/Sc3ccc(OC)cc3N2CC)SC1=S
2%,O=C(CSc1ncn[nH]1)Nc1c(F)cc(F)cc1Br
-10%,O=C(c1ccco1)N1CCN(C(=O)c2cn(-c3ccccc3)nc2-c2ccc(F)cc2)CC1
10%,Cc1ccc(S(=O)(=O)NCC(=O)OCc2cc(=O)oc3cc(C)ccc23)cc1
-21%&12%,O=C1OCCN1C(=O)[C@H]1[C@H](c2ccc([N+](=O)[O-])cc2)C(c2cccc(Cl)c2)=NN1c1ccccc1
4%,CC(=O)Nc1ccc(C(=O)Nc2nnc(CCc3ccccc3)s2)cc1
-4%,Cc1ccc(C(=O)Nc2cccc3cccnc23)cc1C
-14%,O=C(Nc1ccccn1)c1cccc(S(=O)(=O)N2CCCC2)c1
-12%,Cc1ccc2cc(/C=N/NC(=O)[C@@H]3CCCN3)c(Cl)nc2c1

Part of the list above, set out differently.
SMILES,VDR inhibitor
Cc1ccc(S(=O)(=O)NCC(=O)OCc2cc(=O)oc3cc(C)ccc23)cc1,10%
O=C(Cn1nc(C(=O)O)c2ccccc2c1=O)NCCC1=CCCCC1,12%
COc1ccc(C(CNC(=O)c2ccc(S(=O)(=O)N3CC(C)CC(C)C3)cc2)N(C)C)cc1 (stereo not given),5%
O=C1OCCN1C(=O)[C@H]1[C@H](c2ccc([N+](=O)[O-])cc2)C(c2cccc(Cl)c2)=NN1c1ccccc1,-21%&12%
CCCCN1C(=O)/C(=C2/Sc3ccc(OC)cc3N2CC)SC1=S,1%

Following part
VDR inhibitor,Structure
13%,CC(C)c1ccc2[nH]c(O)c(N=NC(=O)c3cccc(S(=O)(=O)Nc4ccc(Cl)cc4)c3)c2c1
6%,C/C=C/c1ccc(OCC(=O)OCc2csc(Nc3ccc(C)cc3)n2)c(OC)c1
-15%,C#CCn1c(=NC(=O)CN2C(=O)CCC2=O)sc2cc(S(N)(=O)=O)ccc21
-5%,COc1ccc(CCN(C)C(=O)c2cc(S(=O)(=O)N3CCCCC3)ccc2Cl)cc1OC
5%,CC[C@]12c3[nH]c4cc(-c5ccco5)ccc4c3CCN1C(=O)[C@@H](CC(=O)NC(C)(C)C)C[C@@H]2C(=O)N1CCN(C(=O)c2ccco2)CC1
6%,CCOC(=O)c1cnc2c(c(C)nn2-c2ccc(C)cc2)c1Cl
?,CCOC(=O)C1(C)C=C(Nc2cccc(C(=O)O)c2)C(=O)N1c1ccccc1 (stereo not given)
-5%,O=[N+]([O-])c1cnc2nc(-c3ccncc3)nn2c1O
6%,C=CCNC(=O)C1CCCN(S(=O)(=O)c2ccc(-n3cnnn3)cc2)C1 (stereo not given)
5%,Cc1ccc(CN2CCN(Cc3ccccn3)CC2CCO)cc1 (stereo not given)
-10%,CCCN1CCC(=O)N([C@H](CSc2ccc(OC)cc2)Cc2ccccc2)CC1
-12%,COc1cccc(C(=O)NCCS(=O)(=O)N2CCC(C)CC2)c1
-18%,COc1ccc(C(=O)N2CCC(C(=O)Nc3ccccc3OC)CC2)cc1
7%,Cc1cccc(C)c1NC(=O)COC(=O)c1ccccc1[N+](=O)[O-]
?,CCC(NC(=O)c1ccccc1NC(=O)C(C)(C)C)C(=O)N1CCCC1 (stereo not given)
9%,COc1ccc(-c2cc(C(=O)Nc3cc(C)n(Cc4ccc(Cl)cc4)n3)no2)cc1OC
-3%,CCCCCC(=O)Nc1nnn(CCC)n1
7%,CC(C)Oc1ccc(C(=O)Nc2nc3ccccc3[nH]2)cc1
-8%,CCOC(=O)c1[nH]c(C)c(C(=O)NCC2CCCO2)c1C (stereo not given)
25%,CCOc1ccc(Br)cc1CNCCSc1nnnn1-c1ccccc1

The list goes on.
VDR inhibitor,Structure
-3%,CC1(OC(=O)c2ccc(Cl)nc2)C(=O)C=C2C=C(C3CC3)OC=C2C1=O (stereo not given)
-5%&-10%,CC(C)N(Cc1ccccc1)C(=O)CCS(=O)(=O)c1ccc2c(c1)oc(=O)n2C
8%,Cc1ccc(NP(=O)(c2ccc(N(C)C)cc2NC(=O)c2cccs2)N2CCOCC2)cc1Cl (stereo not given)
-11%,CCOC(=O)C1=C(N)N2C(=O)C(C)SC2=C(C(=O)OC)C1c1cccc(OC)c1 (stereo not given)
-16%,COc1ccc(C(=O)C2CCCN(C(=O)c3cnsn3)C2)c(C)c1 (stereo not given)
3%,O=C1c2cccc3cccc(c23)C(=O)N1c1nncs1
34%[activator],CCC(CC)n1[nH]c(=O)c2c(C)cc(C)nc21
0%,CCOc1ccc(-c2c(C(=O)N/N=C(\C)c3cccs3)nnn2-c2nonc2N)cc1
0%,CCc1ccc([C@@H]2CC=C(C(=O)O)[C@H](c3ccccc3)N2S(=O)(=O)c2ccc(C)cc2)cc1
15%,COc1cc(/C=C2/SC(=NCc3ccccc3)N(Cc3ccccc3)C2=O)ccc1O
8%,CCOc1ccc(OCc2cccc(C(=O)N3CCOCC3)c2)cc1
?,O=C(Oc1ccc2ccc(O)cc2c1)C1CCCCC1
-8%,CCC1CCCCN1S(=O)(=O)c1ccc(C(=O)Nc2nnc(-c3cccs3)o2)cc1 (stereo not given)
6%,CCc1nn(CCCC(=O)Nc2ccc(C)c(C)c2)c(=O)c2cc3occc3n12
5%,CSc1cccc(CN2CCN(Cc3ccc(F)c(F)c3)C(CCO)C2)c1 (stereo not given)
11%,CCc1c(C)nc(SCC(=O)Nc2ccc3c(c2)OCCO3)[nH]c1=O
11%&13%,Cc1ccc(NC(=O)C2=CC(c3cccs3)=NS(=O)(=O)N2C)cc1
-1%,CCc1ccc(-c2csc(-c3cc4cc(Br)ccc4oc3=O)n2)cc1
15%,Cc1ccnc(N2CCCC(C(=O)NCc3cccs3)C2)n1 (stereo not given)
-7%,Cc1ccc(Cl)cc1N1CCN(C(=O)c2cn(CC(C)C)c(=O)c3c2c2ccccc2n3C)CC1

Entries from the list above that have an aryl thioether with sulfur outside any ring (5):
VDR inhibitor,Structure
2%,O=C(CSc1ncn[nH]1)Nc1c(F)cc(F)cc1Br
-10%,CCCN1CCC(=O)N([C@H](CSc2ccc(OC)cc2)Cc2ccccc2)CC1
25%,CCOc1ccc(Br)cc1CNCCSc1nnnn1-c1ccccc1
5%,CSc1cccc(CN2CCN(Cc3ccc(F)c(F)c3)C(CCO)C2)c1 (stereo not given)
11%,CCc1c(C)nc(SCC(=O)Nc2ccc3c(c2)OCCO3)[nH]c1=O

Continued.
VDR inhibitor,Structure
-7%,Cc1c(C(=O)NCC(c2ccc(Cl)cc2)N2CCOCC2)oc2ccccc12 (stereo not given)
-6%,O=C(COC(=O)c1ccc(F)c(S(=O)(=O)N2CCCCC2)c1)NCc1ccc(F)cc1
-6%,COc1ccc(-c2nnn(Cc3ccccc3F)n2)cc1
13%,O=c1[nH]c(SCc2ccc([N+](=O)[O-])cc2)nc2c1CCCC2
1%,COc1cccc(NC(=O)CSc2ncc3c(n2)-c2ccc(Cl)cc2N(C)S3(=O)=O)c1
1%,CCCC[C@@H](NC(=O)[C@@H](Cc1cn(C(=O)OC)c2ccccc12)NC(=O)[C@H](CC(C)(C)C)NC(=O)N1[C@H](C)CCC[C@@H]1C)C(=O)O
-10%,CN1C2CCC1CC(NC(=O)c1cc(S(=O)(=O)N(C)C)c(Cl)cc1Cl)C2 (stereo not given)
8%,COC(=O)C1=C(C)N(c2ccc(S(N)(=O)=O)cc2)C(=O)C1
-7%,Cc1cccc(N2CCN(C(=O)C3COc4ccccc4O3)CC2)c1C (stereo not given)
?,C=C1CC2(OC1=O)c1ccccc1CCc1ccccc12
-3%,CCOc1ccccc1NC(=O)CN1CCCN(Cc2cccc(Cl)c2)S1(=O)=O
-10%,COc1cccc(NC(=O)NCc2ccc(F)cc2)c1
9%,COC(=O)Nc1[nH]ncc1[N+](=O)[O-]
22µM*,O=C(/C=C/c1ccccc1)c1cc(Br)ccc(=O)c1O
13%,Cc1cccc(N2CCN(Cc3nc(-c4ccc(F)cc4F)oc3C)CC2)n1
-14%,Cn1c2c(c(=O)n(C)c1=O)C(c1ccccc1F)C(C#N)=C(N)O2 (stereo not given)
3%,O=S(=O)(Cc1ccccc1Cl)N1CCCC1
21%,COC(=O)C(NS(=O)(=O)c1ccc(F)cc1)c1ccccc1 (stereo not given)
1%,COc1ccc(S(=O)(=O)N2CCC(C(=O)NCCc3ccccc3)CC2)cc1OC
1%,Cc1ccccc1NC(=O)CCS(=O)(=O)c1cccc2nonc12

Further entries follow:
VDR inhibitor,Structure
-3%,O=C(OCCN1C(=O)c2ccccc2C1=O)c1cnccn1
-4%,CCn1nnnc1SCC(=O)Nc1ccc2c(c1)OCCO2
1%,Cc1sc2nc(SCC(=O)OC(C)C)n(C)c(=O)c2c1C
-18%,O=C1C=C(c2ccc3c(c2)OCO3)CCC1
-3%,COC(=O)c1ccc(NC(=O)CSc2ccc(-c3ccccn3)nn2)cc1
-1%,Cc1ccc(OCC(=O)Nc2nnc(SCc3cc(=O)n4cccc(C)c4n3)s2)cc1
-7%,Cc1cc(C)cc(NC(=S)N2CCN(c3ncccn3)CC2)c1
3%,O=C(CN1CCCc2ccccc21)Nc1ccc(F)cc1[N+](=O)[O-]
-13%,COc1ccc(CC(=O)Nc2ccc(S(=O)(=O)Nc3ncccn3)cc2)cc1
-12%,O=C1CCN(C(=O)c2cccs2)c2ccccc21
7%,C[C@H](CO)N1C[C@H](C)[C@@H](CN(C)C(=O)Nc2ccc(C(F)(F)F)cc2)Oc2ccc(NC(=O)C3CC3)cc2C1=O
-18%,O=C(c1ccc([N+](=O)[O-])s1)N1CCCc2ccccc21
-3%,CCC1CCc2nc3sc(C(=O)Nc4ccc(F)c(Cl)c4)c(N)c3cc2C1 (stereo not given)
-1%,Cc1ccccc1-c1nnc(SCC(=O)N(C)C2CCS(=O)(=O)C2)n1C (stereo not given)
5%,C=Cn1c(C(=O)O)cc(CC)c1-c1ccccc1
?,COc1ccc(CN2CCCC(C(=O)N3CCCCC3)C2)c(OC)c1 (stereo not given)
4%,Cc1cccc(NC(=O)CSc2nnc([C@@H]3CCCN3C(=O)OC(C)(C)C)o2)c1C
-21%,CCOC(=O)c1c(NC(=O)Cn2ccsc2=N)sc(C)c1C
-3%,CCOC(=O)N1CCN(C(=O)c2ccc(CN(c3ccc(C)c(C)c3)S(C)(=O)=O)cc2)CC1
-6%,CC(=O)N(C)c1nnc(-c2cnccn2)s1

Next section.
VDR inhibitor,Structure
3%,Cc1cccc(-c2nnc(SCCC(=O)N3CCOCC3)o2)c1
-1%,COC(=O)CCCN1C(=O)NC(c2ccc(-c3ccccc3)cc2)C(C(=O)OCc2ccccc2)=C1C (stereo not given)
16%,CSc1nc2ccccc2n1CC(=O)N1CCCCC1
2%,CCOC(=O)c1sc2nc(C)n(N)c(=O)c2c1C
-9%,O=C(COC(=O)Cn1cnc2ccccc2c1=O)NCC12CC3CC(CC(C3)C1)C2
10%,C/C(=N\NC(=O)c1cc(C2CC2)nc2ccccc12)c1ccc(C)s1
-18%,Cc1ccc(NC(=O)Cn2c(=O)n(CC(=O)NCCc3ccccc3)c(=O)c3ccccc32)cc1
-14%,Nc1ccc(C(=O)OCC(=O)NC2CC2)cc1[N+](=O)[O-]
-4%,CC(C)c1ccccc1NC(=S)NCCCn1ccnc1
-8%,CC(=O)Nc1nonc1NC(=O)CSc1nc2ccccc2o1
-3%,CSc1ccccc1C(=O)Nc1cccc(C)c1
-5%,CC(C)CN1CCC(CNC(=O)CCc2nnc(Cc3c[nH]c4ccccc34)o2)CC1
-1%,Cc1ccc(-c2csc3ncnc(SCC(=O)c4ccc5c(c4)OCCO5)c23)cc1
8%,COc1cc(Cl)c(S(=O)(=O)NCCN2CCOCC2)cc1Cl
2%,CC(=O)Nc1ccc(NC(=O)c2ccc3c(c2)CCN3S(=O)(=O)c2ccc(C)cc2)cc1
9%,CC(=O)N1CCc2cc(S(=O)(=O)NCCC(=O)NCCc3ccc(Cl)cc3)ccc21
-3%,Cc1ccc(-c2nnc(Nc3ccc(OCC(N)=O)cc3)c3ccccc23)cc1S(N)(=O)=O
11%,CC(C)NC(=O)CN1CCN(Cc2nc(C(c3ccccc3)c3ccccc3)no2)CC1
?,COc1cc(Cl)ccc1NC(=S)N(CCCN1CCOCC1)Cc1cn(C)c2ccccc12
-3%,O=C(CSc1nc(=O)n2ccccc2n1)N1CCCc2ccccc21
79µM*,Cc1ccc(CC(=O)NNC(=O)c2ccncc2)cc1C
-7%,Cc1ccc(S(=O)(=O)c2cnc(SCC(=O)Nc3cccc(Cl)c3)nc2N)cc1C

An excerpt from above in order of SMILES length, ascending:
VDR inhibitor,Structure
79µM*,Cc1ccc(CC(=O)NNC(=O)c2ccncc2)cc1C
8%,COc1cc(Cl)c(S(=O)(=O)NCCN2CCOCC2)cc1Cl
-9%,O=C(COC(=O)Cn1cnc2ccccc2c1=O)NCC12CC3CC(CC(C3)C1)C2
-7%,Cc1ccc(S(=O)(=O)c2cnc(SCC(=O)Nc3cccc(Cl)c3)nc2N)cc1C
-3%,Cc1ccc(-c2nnc(Nc3ccc(OCC(N)=O)cc3)c3ccccc23)cc1S(N)(=O)=O

Screening data as filed in PubChem.
